Screening results (PubChem BioAssay)
Autofluor counter: compound fluorescence in toxin protease inhibitor counterscreen; fluorescence intensity (concentration not given with the values); AID 624483; hit rate 3.1% among 360,000; compound autofluorescence counterscreen, microsphere flow cytometry; active compounds read high;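 active = at least 3 SD above the mean of all compounds, about 16000 in these data; inconclusive = too few beads counted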;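 note: 100 nL of 1 mM stock went into each well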
Sa RN4220 lethal: growth inhibition of S. aureus RN4220, primary screen, OD600; 16 h; inhibition, % (concentration not given with the values); hit rate 0.33% among 330,000; AID 1259311, 2017;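 active = z-score of -3 or lower and OD600 up to 0.18 on both plates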;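 note: plate controls were untreated cells for no effect and reference antibiotic for full effect; stock transfer was 100 nL into about 80 µL; one replicate is shown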
BJeLR lethal: MLPCN primary cell-based screen for lethality selective to Ras in HRASV12 cells; hit rate 0.17% among 300,000; BJeLR (HRASV12) viability, CellTiter-Glo ATP luminescence, 48 h; reference of the scale not given here; inhibition, % (no concentration beside the values);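 active = replicate mean above 50%; inconclusive = above 50% but judged a plate artefact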;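 note: 50 nL library stock added to about 25 µL; numbers are from one replicate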
Mtb hypoxia inh: PubChem AID 1159583 | M. tuberculosis hypoxia-regulated fluorescent reporter, fluorescence | fluorescence inhibition, % (concentration not given with the values) | hit rate 0.1% among 300,000;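 active = 35 to 45% if threefold the growth effect, above 45% if 1.5-fold the growth effect; inactive = the rest, general growth blockers included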;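 note: wells of about 50 µL received 100 nL stock; 0% = vehicle wells and 100% = reference inhibitor wells; whole bacteria with a GFP reporter of the hypoxia response; strong numbers were not always called active; many hits fall short of the cut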
Sa ugtP lethal: growth inhibition of ugtP-null S. aureus, primary screen, RN4220 ugtP deletion, OD600. 16 h; some inactives read as strong as hits. growth inhibition, % (test concentration not listed). hit rate 0.54% among 330,000. AID 1259309, 2017;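 active = z-score under -3 and OD600 up to 0.15 on both plates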;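 note: plate controls were untreated wells for no effect and antibiotic for full effect; wells of about 80 µL received 100 nL stock; the first replicate is given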
PrP 5UTR inh: inhibition of PrP 5' UTR reporter expression; cell-based PrP 5' UTR mRNA reporter, plate reader; inhibition, % (concentration not given with the values); hit rate 0.35% among 340,000; AID 488862, 2010;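 active = every replicate at 50% or more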;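 note: 0 = median of the neutral control wells; tested in H4 reporter cells; numbers are from one replicate; inactives centre near -14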
Mtb hypoxia inh growth: further read-out of Mtb hypoxia inh, marked with its call; growth inhibition, %; measured here: M. tuberculosis growth (absorbance);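 0% = vehicle and 100% = reference antibiotic; read after six days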
The depositor's hits bear a star; ? = inconclusive; · = no result given.

SMILES	Autofluor counter	Sa RN4220 lethal	BJeLR lethal	Mtb hypoxia inh	Mtb hypoxia inh growth	Sa ugtP lethal	PrP 5UTR inh
Cn1[nH]c(C(F)(F)F)cc1=O	2433	6.3	-8	-2	-8	9	-16
CCOC(=O)C1CCN(C(=O)COC(=O)/C=C/c2ccc([N+](=O)[O-])cc2)CC1	4080	2.0	·	10	4	1	-8
O=C(CC1NCCNC1=O)Nc1ccc2c(c1)OCCO2 (centres undefined)	10651	5.5	·	9	5	6	-17
Cc1nc2ccc(C(=O)c3ccccc3)cc2[nH]1	4386	-3.1	4	4	4	-5	-68
CCCNC(=O)N1C2CCC1C(C(=O)OC)=C(c1cc3ccccc3s1)C2 (centres undefined)	·	2.7	·	20	5	5	·
COc1ccc(Nc2oc(-c3ccccc3F)nc2C#N)cc1	5802	3.5	10	19	11	-12	-50
COc1ccc(N2CCN(C3CC(=O)N(Cc4ccc(N5CCCC5=O)cc4)C3=O)CC2)cc1 (centres undefined)	4201	0.3	4	·	·	5	-1
Cc1ccc(C(C(=O)NC2CCCC2)N(C(=O)CNC(=O)c2ccco2)c2ccccc2)o1 (centres undefined)	4893	0.7	2	-7	-7	10	-12
CCN(CC)S(=O)(=O)c1ccc(C(=O)N2CCN(C(=O)c3ccco3)CC2)cc1	5175	3.0	·	8	9	5	-9
COCc1nnc(NC(=O)CS(=O)(=O)Cc2ccccc2)s1	4894	-4.0	-12	-1	3	-1	-16
Cc1[nH]c2ccccc2c1C(=O)/C=C\c1ccccc1Cl	2534	3.2	7	3	-4	-6	-132
O/N=C/c1ccccc1Oc1ccccc1	2792	·	-1	·	·	·	-10
CCCCN(C)C(=O)Cn1cnc2sc(C)c(S(=O)(=O)N3CCN(c4ccccc4OC)CC3)c2c1=O	5508	2.2	-4	2	12	0	-1
CC(C)Oc1ccc(C2C(C(=O)c3ccco3)=C(O)C(=O)N2Cc2cccnc2)cc1 (centres undefined)	6640	0.5	7	7	2	4	-15
Cc1ccc(S(=O)(=O)N2CCN(C(=O)c3ccc(Br)o3)CC2)c(C)c1	5831	0.0	-11	3	1	13	-19
COc1ccc(NC(=O)Nc2ccccn2)cc1OC	4520	0.6	11	17	10	-3	-32
Cc1ccc(OCC(=O)N2CC3(C)CC2CC(C)(C)C3)cc1 (centres undefined)	4365	3.2	5	·	·	-1	-5
COc1ccc(OCC(O)CNS(=O)(=O)c2ccc(NC(C)=O)cc2)cc1 (centres undefined)	6124	3.3	-2	8	0	5	-11
CSc1ccccc1NC(=O)c1ccccc1N(C)S(C)(=O)=O	22950*	1.7	-5	-4	16	-7	5
Cn1c(SCC(=O)N2CCc3ccccc32)nc2cccnc21	4074	3.0	10	9	9	-1	-28
CCCOc1cc(C)c(Cl)cc1S(=O)(=O)N(CC)CC	4708	4.3	-7	·	·	3	-12
CNC(=O)c1ccc(-c2ccccc2)s1	4769	5.1	7	·	·	-4	-69
O=S(=O)(Nc1ccc(Oc2ncccn2)c(Cl)c1)c1ccc(F)cc1	3711	·	2	·	·	·	-12
CCOC(=O)C1=C(C)N=c2sc(=Cc3cccc([N+](=O)[O-])c3O)c(=O)n2C1c1ccc(OC)cc1OC (centres undefined)	·	-14	·	41*	3.5*	40	·
COc1ccc(C=CC(=O)OCC(=O)NCC2CCCO2)cc1 (centres undefined)	·	7.5	·	8	0	8	·
More entries follow:
SMILES	Autofluor counter	Sa RN4220 lethal	BJeLR lethal	Mtb hypoxia inh	Mtb hypoxia inh growth	Sa ugtP lethal	PrP 5UTR inh
COc1ccc(OC)c(-c2nc(C(N)=O)c3[nH]c(=O)n(-c4ccc(F)cc4)c3n2)c1	5599	3.4	6	-6	4	6	-36
Cc1ccc(NC(=O)CCc2ccccc2)cc1S(=O)(=O)N1CCOCC1	3011	3.7	·	3	2	5	2
CC(C)C(NC(=O)CSc1ccc(Cl)cc1)C(C)C	5792	6.0	2	12	19	1	-12
CC[C@@]12C(=O)N(c3cccc(F)c3)C(=O)N1C(c1ccc(OC)cc1)C1C(=O)N(C(C)(C)C)C(=O)C12 (some centres undefined)	·	2.3	·	4	11	-12	·
CC(C)Oc1ccccc1/C=N/NC(=O)c1ccc(F)cc1	7169	·	6	·	·	·	-6
O=C(N/N=C/c1cccnc1)c1ccccc1OCc1cccc(Br)c1	2222	·	11	·	·	·	-42
O=c1oc2ccccc2n1CCCCCn1c(=O)oc2ccccc21	2480	23	3	19	-23	16	13
O=C(CSc1ccc2nnc(-c3ccc(F)cc3)n2n1)N1CCOCC1	5198	0.3	13	7	5	5	-40
CC1CCCN(c2nc(N(C)c3ccccc3)nc(N)c2[N+](=O)[O-])C1 (centres undefined)	5454	-1.0	2	18	16	-3	-20
COc1ccc(-c2c(NCCc3ccccc3)c(=O)c2=O)cc1	3320	-0.1	2	9	-5	-3	-11
O=C(Nc1ccc2c(c1)Cc1ccccc1-2)c1ccccc1F	·	0.3	-2	7	4	7	-132
C=CCN1C(=O)C(CC(=O)O)SC1=Nc1c(C)n(C)n(-c2ccccc2)c1=O (centres undefined)	10189	3.9	1	15	13	5	-20
CCn1c(SCC(=O)Nc2ccccc2N2CCOCC2)nnc1-c1ccccc1	4220	3.3	-2	10	12	8	-19
Cc1c(NS(=O)(=O)c2ccc3c(c2)Cc2ccccc2-3)c(=O)n(-c2ccccc2)n1C	4155	-0.1	-9	-10	-2	-6	-12
CCOC(=O)C1CCCN(C(=O)Cn2cnc3sc(C)c(S(=O)(=O)N4CCOCC4)c3c2=O)C1 (centres undefined)	4648	4.1	-11	-2	6	6	-17
C/C(=N\NC(=S)NC1CCCCC1)c1ccc(Cl)c(Cl)c1	3538	·	-12	·	·	·	6
COc1ccc(CN(CC(=O)NCCc2ccccc2)C(=O)CCC(=O)Nc2ccccn2)cc1	6040	3.5	-11	16	2	4	-3
CC(=NNC(=O)C(O)c1ccccc1)c1cccnc1 (centres undefined)	·	-1.6	·	-4	-2	0	·
Clc1nc(Cl)c2ncn(-c3ccccc3)c2n1	3057	6.8	·	9	12	7	-24
CSc1ccccc1NC(=O)C1=COCCO1	6255	2.4	8	6	3	0	-43
CSCCC(NS(=O)(=O)c1ccc(C)cc1)C(=O)N1CCN(C(c2ccccc2)c2ccccc2)CC1 (centres undefined)	5840	-1.2	0	2	-9	9	7
CCn1c(N)c(C(=O)Nc2ccccc2C(=O)OC)sc1=S	2633	-0.3	3	·	·	-11	13
CCOC(=O)Cc1csc(NC(=O)C(NC(=O)C2CCCCC2)C(C)C)n1 (centres undefined)	·	2.3	8	-9	5	-4	-14
O=C(Cc1ccccc1[N+](=O)[O-])Nc1nccs1	5095	6.0	17	2	6	5	-14
CCc1nnc(NC(=O)CCC(=O)N2CCC(Cc3ccccc3)CC2)s1	5695	1.1	-6	-2	11	6	-7

Some of the entries so far, bar-delimited:
SMILES | Autofluor counter | Sa RN4220 lethal | BJeLR lethal | Mtb hypoxia inh | Mtb hypoxia inh growth | Sa ugtP lethal | PrP 5UTR inh
COc1ccc(OC)c(-c2nc(C(N)=O)c3[nH]c(=O)n(-c4ccc(F)cc4)c3n2)c1 | 5599 | 3.4 | 6 | -6 | 4 | 6 | -36
Cc1ccc(NC(=O)CCc2ccccc2)cc1S(=O)(=O)N1CCOCC1 | 3011 | 3.7 | · | 3 | 2 | 5 | 2
CC(C)C(NC(=O)CSc1ccc(Cl)cc1)C(C)C | 5792 | 6.0 | 2 | 12 | 19 | 1 | -12
CC[C@@]12C(=O)N(c3cccc(F)c3)C(=O)N1C(c1ccc(OC)cc1)C1C(=O)N(C(C)(C)C)C(=O)C12 (some centres undefined) | · | 2.3 | · | 4 | 11 | -12 | ·
CC(C)Oc1ccccc1/C=N/NC(=O)c1ccc(F)cc1 | 7169 | · | 6 | · | · | · | -6
O=C(N/N=C/c1cccnc1)c1ccccc1OCc1cccc(Br)c1 | 2222 | · | 11 | · | · | · | -42
O=c1oc2ccccc2n1CCCCCn1c(=O)oc2ccccc21 | 2480 | 23 | 3 | 19 | -23 | 16 | 13
O=C(CSc1ccc2nnc(-c3ccc(F)cc3)n2n1)N1CCOCC1 | 5198 | 0.3 | 13 | 7 | 5 | 5 | -40
CC1CCCN(c2nc(N(C)c3ccccc3)nc(N)c2[N+](=O)[O-])C1 (centres undefined) | 5454 | -1.0 | 2 | 18 | 16 | -3 | -20
COc1ccc(-c2c(NCCc3ccccc3)c(=O)c2=O)cc1 | 3320 | -0.1 | 2 | 9 | -5 | -3 | -11
O=C(Nc1ccc2c(c1)Cc1ccccc1-2)c1ccccc1F | · | 0.3 | -2 | 7 | 4 | 7 | -132
C=CCN1C(=O)C(CC(=O)O)SC1=Nc1c(C)n(C)n(-c2ccccc2)c1=O (centres undefined) | 10189 | 3.9 | 1 | 15 | 13 | 5 | -20

2 consecutive records out of the list so far:
SMILES	Autofluor counter	Sa RN4220 lethal	BJeLR lethal	Mtb hypoxia inh	Mtb hypoxia inh growth	Sa ugtP lethal	PrP 5UTR inh
Cn1[nH]c(C(F)(F)F)cc1=O	2433	6.3	-8	-2	-8	9	-16
CCOC(=O)C1CCN(C(=O)COC(=O)/C=C/c2ccc([N+](=O)[O-])cc2)CC1	4080	2.0	·	10	4	1	-8

Carrying on:
SMILES	Autofluor counter	Sa RN4220 lethal	BJeLR lethal	Mtb hypoxia inh	Mtb hypoxia inh growth	Sa ugtP lethal	PrP 5UTR inh
Cc1cc(=O)[nH]c(SCC(=O)N2CCCc3ccccc32)n1	12890	4.0	1	16	6	0	-19
O=c1cc(-c2ccc([N+](=O)[O-])cc2)c2cc3c(cc2[nH]1)OCCO3	6011	1.6	14	4	-4	4	-4
COc1ccc(OCC(=O)NNC(=O)c2ccccc2OCc2c(C)noc2C)cc1	?	3.4	-8	3	0	4	-7
CC(=O)N1CCN(S(=O)(=O)c2cccc(C(=O)Nc3ccc(C)cn3)c2)CC1	4673	2.5	2	11	7	-9	-26
NC(=O)N/N=C/c1ccc(N2CCOCC2)s1	1825	·	-8	·	·	·	7
C=C1CC2C3CC[C@@]4(OCOC45COCO5)[C@@]3(C)C(O)CC2[C@@]2(C)CCC(=O)C=C12 (some centres undefined)	2119	6.0	-4	11	7	-5	2
CSc1nc(C)c(CCOCc2ccccc2)c(=O)[nH]1	3879	1.5	-5	3	2	0	-36
FC(F)(F)c1ccc(-c2nnc(-c3ccccn3)c(-c3ccccn3)n2)nc1	4353	4.4	-15	9	11	7	-3
CNC(=O)CCCCC(=O)NN=Cc1ccc(Cl)cc1Cl	·	9.7	·	3	-1	-1	·
O=c1c2ccccc2cnn1Cc1ccc(Cl)c(Cl)c1	4068	2.4	-10	10	13	7	14
O=S(=O)(NCCn1cccc1)c1ccc2ccccc2c1	3846	0.9	0	-4	-1	-3	-25
O=C(/C=C1\NC2(CCCC2)Cc2ccccc21)C(=O)NN=Cc1ccccc1O	·	40	·	4	-6	31	·
Cc1ccc(NC(=O)C(OC(=O)c2ccc(NC(N)=O)cc2)c2ccccc2)cc1Cl (centres undefined)	2133	101*	-23	14	6	100*	-18
COC(=O)c1ccc(C=Nn2cnnc2)cc1	·	3.4	·	-3	0	-3	·
CCOC(=O)C1=CN(Cc2cccc(F)c2)S(=O)(=O)NC1c1ccc(Br)cc1F (centres undefined)	2980	-7.9	·	7	-4	-9	-28
Cc1cccc(C(=O)OCN2C(=O)c3ccccc3C2=O)c1[N+](=O)[O-]	4314	1.7	-6	12	13	8	-26
COc1ccc(NC(=O)CC2C(=O)N(C)C(=S)N2CCc2ccccc2)cc1 (centres undefined)	11992	0.5	-3	5	-4	-10	-34
COCCN(Cc1cc2cc3c(cc2nc1Cl)OCO3)C(=O)Nc1ccc(F)cc1	7910	2.3	-1	9	7	-3	-12
CCOC(=O)c1c(OCC)[nH]c2ccc(O)cc12	4210	-1.1	-10	3	1	14	-14
Cc1ccc(N(CC(=O)N2CCc3ccccc32)S(=O)(=O)c2cccs2)cc1	10436	4.7	-9	7	10	5	3
CS(=O)(=O)Nc1ccc(C(=O)Nc2ccc(S(=O)(=O)N3CCCC3)cc2)cc1	5151	1.2	3	-10	-2	2	-31
Cc1nn(CC(=O)NCC(C)c2ccccc2)c(=O)c2cc3occc3n12 (centres undefined)	5820	2.8	0	11	2	0	-10
CS(=O)(=O)N(Cc1ccccc1)c1ccc(C(=O)NCCSc2ccccn2)cc1	10966	3.0	12	-1	1	5	-18
Cc1ccc(NC(=O)c2nc[nH]c2C(=O)N2CCCCC2)c(C(=O)c2ccccc2)c1	2096	2.3	2	·	·	10	-35
COc1ccc(C2C(C(=O)N3CCOCC3)=C(C)NC3=C2C(=O)CC(C)(C)C3)c(OC)c1 (centres undefined)	6057	5.4	1	6	6	4	-27
